Source: PubChem
Mtb hypoxia inh = reduces hypoxia-regulated biosensor signal in M. tuberculosis; hit rate 0.1% among 300,000; M. tuberculosis hypoxia-regulated fluorescent reporter, fluorescence; fluorescence inhibition, % (concentration not given with the values); AID 1159583;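 active = 35 to 45% if threefold the growth effect, above 45% if 1.5-fold the growth effect; inactive = the rest, general growth blockers included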;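 note: wells of about 50 µL received 100 nL stock; 0% = vehicle wells and 100% = reference inhibitor wells; whole bacteria with a GFP reporter of the hypoxia response; strong numbers were not always called active; many hits fall short of the cut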
PrP UTR inh = suppresses PrP 5' UTR mRNA reporter expression | cell-based PrP 5' UTR mRNA reporter, plate reader | inhibition, % (no concentration beside the values) | hit rate 0.35% among 340,000 | AID 488862;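 active = every replicate at 50% or more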;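 note: 0 = median of the neutral control wells; tested in H4 reporter cells; numbers are from one replicate; inactives centre near -14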
Autofluor counter = counter-screen for toxin protease inhibitors: compound fluorescence; compound autofluorescence counterscreen, microsphere flow cytometry; stronger effect = higher value; hit rate 3.1% among 360,000; fluorescence intensity (test concentration not listed);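 active = at least 3 SD above the mean of all compounds, about 16000 in these data; inconclusive = too few beads counted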;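 note: 100 nL of 1 mM stock went into each well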
BJeLR lethal = BJeLR cell viability loss. BJeLR (HRASV12) viability, CellTiter-Glo ATP luminescence, 48 h; reference of the scale not given here. inhibition, % (concentration not given with the values). hit rate 0.17% among 300,000;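 active = replicate mean above 50%; inconclusive = above 50% but judged a plate artefact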;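 note: 50 nL library stock added to about 25 µL; numbers are from one replicate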
RN4220 kill = kills Staphylococcus aureus RN4220; S. aureus RN4220 growth, OD600, 16 h; inhibition, % (test concentration not listed); hit rate 0.33% among 330,000;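 active = z-score of -3 or lower and OD600 up to 0.18 on both plates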;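 note: plate controls were untreated cells for no effect and reference antibiotic for full effect; stock transfer was 100 nL into about 80 µL; one replicate is shown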
ugtP null kill = growth inhibition of S. aureus ugtP deletion strain; growth inhibition, % (concentration not given with the values); hit rate 0.54% among 330,000; S. aureus RN4220 ugtP deletion, OD600 growth, 16 h; some inactives read as strong as hits;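 active = z-score under -3 and OD600 up to 0.15 on both plates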;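 note: plate controls were untreated wells for no effect and antibiotic for full effect; wells of about 80 µL received 100 nL stock; the first replicate is given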
Mtb hypoxia inh growth = further read-out of Mtb hypoxia inh, marked with its call; growth inhibition, %; measured here: M. tuberculosis growth (absorbance);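 0% = vehicle and 100% = reference antibiotic; read after six days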
Active calls of the source: *; u = inconclusive; x = no result given; & = joins results of further samples. Hits appear at their usual frequency; about 3.9% have a hit in one of these screens.

Preview (two entries):
SMILES	Mtb hypoxia inh	Mtb hypoxia inh growth	PrP UTR inh	Autofluor counter	BJeLR lethal	RN4220 kill	ugtP null kill
C1=CC2CC1CC2CNCc1ccco1 (centres undefined)	3	8	-1	4363	-5	4.2	-2
CCOC(=O)C1CCCN(C(=O)c2ccccc2NC(C)=O)C1 (centres undefined)	-6	-7	-12	3970	-13	1.2	-1

Main list, from the first entry:
SMILES	Mtb hypoxia inh	Mtb hypoxia inh growth	PrP UTR inh	Autofluor counter	BJeLR lethal	RN4220 kill	ugtP null kill
C1=CC2CC1CC2CNCc1ccco1 (centres undefined)	3	8	-1	4363	-5	4.2	-2
CCOC(=O)C1CCCN(C(=O)c2ccccc2NC(C)=O)C1 (centres undefined)	-6	-7	-12	3970	-13	1.2	-1
Cn1c(N)c(N=Nc2ccc(S(N)(=O)=O)cc2)c(=O)n(C)c1=O	2	2	-10	3885	-8	0.6	3
CSCC[C@H](NC(=O)N1CCn2c1nc1ccccc12)C(=O)NCc1ccc(F)cc1	-7	-3	-14	5992	1	2.0	-2
O=C(O)CSCc1ccc(C(=O)O)o1	0	6	-15	9373	-10	0.8	1
O=C(O)c1ccc(N/N=C/c2cc3cc4c(cc3nc2Cl)OCCO4)cc1	x	x	46	4032	-3	x	x
CCN(C[C@H]1N[C@@](C)(C(=O)OC)[C@H]2C(=O)N(Cc3ccccc3)C(=O)[C@@H]12)C(=O)c1ccccc1	-3	2	-15	3038	x	0.9	4
N#Cc1ccc(NC(=O)CCc2nc3ccccc3s2)cc1	13	1	-18	2583	2	3.7	1
COc1cccc(C2C(C#N)=C(N)SC(c3ccccc3)C2[N+](=O)[O-])c1 (centres undefined)	-9	4	-28	5117	-9	-2.1	8
CC(=O)Nc1ccc(Sc2ncnc3scc(-c4ccccc4)c23)cc1	5	8	-13	2508	-13	-1.1	-25
Cc1nc(/N=C\c2ccc(N(C)C)cc2)sc1C	x	x	-7	3826	1	x	x
COC(=O)C1=C(c2ccc(OC(F)(F)F)cc2)CC2CCC1N2C(=O)NCc1cccc2ccccc12 (centres undefined)	6	12	x	x	x	-14	2
Cc1nc(C#N)c(NN=Cc2c(F)cccc2Cl)o1	0	2	x	x	x	7.6	13
CCOc1cccc(C(=O)NN=Cc2coc3ccccc3c2=O)c1	-5	0	x	x	x	2.8	0
O=S(=O)(NN=Cc1ccc2c(c1)OCO2)c1ccccc1	4	12	x	x	x	4.2	2
Cc1cc(NC(=O)c2c(F)cccc2Cl)no1	10	5	-22	2162	-6	6.2	-5
O=C(CC12CC3CC(CC(C3)C1)C2)NC(=S)NCc1ccco1	22	13	-35	4661	2	-3.1	11
Cn1ncc2c(NNC(=O)Cc3cccc4ccccc34)ncnc21	11	-6	-14	7876	-11	7.4	4
CCCCCCc1cc2cc(S(=O)(=O)c3ccc(Cl)cc3)c(=O)oc2cc1O	x	x	1	6014	2	1.3	13
CC(OC(=O)c1cc(Br)ccc1O)C(=O)NCc1ccc2c(c1)OCO2 (centres undefined)	-11	3	0	6003	1	2.2	-2
CCc1ccc(C=NNC(=O)c2cc(C)on2)s1	-2	2	x	x	x	-2.2	1
CCN1CCc2c(OCC(=O)N3N=C(c4cccs4)CC3c3ccc(F)cc3)cccc2C1=O (centres undefined)	12	3	-20	2842	-16	-4.2	-8
Cc1ccc(C)c(NC(=S)c2ccccn2)c1	x	x	-53	2857	-3	-2.1	13
O=C(NN=Cc1cccc([N+](=O)[O-])c1)c1cc[n+](CCO)cc1	1	1	x	x	x	7.0	13
Cc1ccc(C(=O)NCCc2cccs2)cc1	x	x	37	1988	10	5.2	7
COc1ccc(OC)c(/C(C)=N\NC(=O)c2cc3cc(Cl)ccc3n2C)c1	x	x	-13	3919	-5	x	x
COC(=O)CSc1nc(-c2ccc(F)cc2)cc(C(F)(F)F)n1	3	-3	-54	2469	6	16	40
CCSc1nc2ccccc2c(=O)n1-c1c(C)n(C)n(-c2ccccc2)c1=O	10	5	-19	3186	-7	7.0	0
Cc1ccc(-c2nnc(SCC(=O)N3CCCC3)o2)cc1C	x	x	-37	4940	7	0.6	-7
CCN1CCN(C(=O)CCc2nnc(CCCCc3ccccc3)o2)[C@@H](C)C1=O	1	1	-12	4572	-1	2.3	2
CCOc1cc(C=NNC(=O)c2ccc(NC(=O)C(C)(C)C)cc2)ccc1OC(=O)c1ccc(C)cc1	-2	2	x	x	x	13	4
COc1cc(NC(=S)Nc2ccc(S(=O)(=O)N3CCOCC3)cc2)cc(OC)c1OC	15	7	-3	7585	-1	2.2	-1
COC(=O)C1(Cc2cc(-c3ccc([N+](=O)[O-])cc3)no2)CCN(C(=O)OC(C)(C)C)CC1	15	5	-3	2942	3	4.2	-8
CC(=O)Nc1ccc(SCC(=O)Nc2ccc(Cl)cn2)cc1	1	7	-22	4478	-1	7.0	-2
CC(OC(=O)C1CC1)C(=O)Nc1cc(Cl)cc(Cl)c1 (centres undefined)	6	-3	-10	3104	x	4.1	-13
CCc1nnc(NC(=O)C2CCCN(S(=O)(=O)c3ccccc3)C2)s1 (centres undefined)	0	5	-17	11383	1	-2.6	0
CC1NCCC2(O)CCCCC12 (centres undefined)	4	3	-6	3277	-2	3.6	1
CN(Cc1ccccc1)C(=O)CCC1CCN(S(=O)(=O)N(C)C)CC1	5	-7	-17	3163	-7	-0.4	5
COc1ccccc1-c1nc(C#N)c(NCc2ccc(F)cc2)o1	5	8	1	3037	9	-1.8	-16
CCC(C)(c1nnnn1-c1c(C)cccc1C)N(N=O)c1cccc(C(F)(F)F)c1 (centres undefined)	6	10	-15	2090	4	9.8	16
CCc1cccc(C)c1NC(=O)CO/N=C(\N)CC(=O)NC1CCCCC1	0	-1	-14	5015	4	6.0	2
CCOc1cc(C=NN=C(N)c2nonc2N)cc(Br)c1OCc1cccc2ccccc12	-7	-1	x	x	x	8.2	-2
CCOc1cccc(C(=O)Nc2cc(-c3nn4c(C)nnc4s3)ccc2C)c1	x	x	-12	6298	-3	-2.3	11
CC(C)CCN1CCN(Cc2ccc3nsnc3c2)CC1CCO (centres undefined)	13	-1	7	2602	-4	0.9	14
Cc1ccc(S(=O)(=O)N2CCN(C(=O)c3ccc(Cl)nc3)CC2)cc1	4	3	-8	3847	-1	8.5	5
COC(=O)c1cc(S(=O)(=O)N2CCN(c3ccc(F)cc3)CC2)c[nH]1	-7	8	0	5608	4	2.8	0
CCc1ccc(N2CC(C)Cn3c2nc2c3c(=O)[nH]c(=O)n2C)cc1 (centres undefined)	1	5	-12	3790	-1	0.1	4
CCOc1ccc(/C=N/Nc2nc(N3CCCC3)nc(N3CCCC3)n2)cc1OC	x	x	-1	5850	-15	x	x
Cn1c(NN=Cc2c[nH]c3ccccc23)nc2ccccc21	3	13	x	x	x	-1.4	-6
O=c1[nH]c(-c2ccccc2O)nc2c1CCCC2	-7	12	-8	x	-16	12	5

(cont.)
SMILES	Mtb hypoxia inh	Mtb hypoxia inh growth	PrP UTR inh	Autofluor counter	BJeLR lethal	RN4220 kill	ugtP null kill
Cc1cc(C)cc(OCC(=O)NNC(=O)CCC(=O)NCc2ccccc2)c1	3	0	-13	2363	-1	-14	-4
C[C@]12CC[C@H]3[C@@H](CCC4=CC(=O)CC[C@@H]43)[C@@H]1CC[C@@H]2O	x	x	-8	6499	x	6.6	-8
Cc1ccc(NS(=O)(=O)c2ccc3[nH]c(=O)[nH]c3c2)c(C)c1	7	17	0	2637	4	1.5	-5
CCn1c(C)[n+](CCOCC[n+]2c(C)n(CC)c3cc(Cl)c(Cl)cc32)c2cc(Cl)c(Cl)cc21	23	7	-13	12526	x	4.5	3
O=C(OCc1nc2ccccc2s1)c1cccc(N2C(=O)CCC2=O)c1	17	8	-7	3893	1	2.6	8
Cn1c(=O)c2ncn(CC(=O)NCCC3=CCCCC3)c2n(C)c1=O	-4	-5	-17	3879	-4	-2.5	-7
O=C(c1cccc(F)c1F)N1CCCc2ccccc21	7	2	-27	4123	-5	3.7	5
CC1(C)CC(=O)C2=C(C1)N(c1ccccc1)C(=O)CC2c1ccsc1 (centres undefined)	4	6	-20	5339	6	-0.1	12
CCOc1ccc(C(=O)C2CCN(CC(=O)Nc3ccccc3N3CCOCC3)CC2)cc1	2	2	x	8244	0	-0.4	-6
N#C/C(=C(/O)COC(=O)c1ccc(Cl)c(S(=O)(=O)N2CCOCC2)c1)c1nc2ccccc2[nH]1	-4	-2	-17	2689	-14	1.6	-17
O=C(Nc1cccc(-c2nnc(-c3ccccc3)o2)c1)c1ccc(Br)o1	-3	8	-19	4377	-3	15	-15
CCOc1cc(CNCc2cccs2)cc(Br)c1OCC	17	20	-25	3527	9	2.1	0
CC(=NNC(=O)c1cccc(S(=O)(=O)N2CCOCC2)c1)c1ccc(OCC(=O)N(C)C)cc1	1	4	x	x	x	1.9	1
O=C(OC1CCCC1)c1ccc(Cl)cc1Cl	7	-3	3	2801	x	8.6	10
O=C(NC(=S)Nc1ccc2[nH]c(=O)[nH]c2c1)c1cccc(F)c1	0	-1	-21	3398	8	2.3	17
COC(=O)c1cn(NC(=O)Cc2c(F)cccc2Cl)c(=O)c2ccccc12	-4	0	4	4103	x	-3.9	-4
COc1ccc(OCC(=O)NN=C(C)Cc2ccccc2)cc1	5	-1	x	x	x	-0.7	9
O=C(NCc1ccccc1Cl)c1cnccn1	x	x	-20	3239	3	1.6	-1
CCOC(=O)c1ccc(NC(=S)N2CCC(C(N)=O)CC2)cc1	x	x	-10	2139	-1	x	x
COc1ccc(N2CCN(C(=O)COC(=O)c3cc(S(=O)(=O)N(C)C)ccc3N3CCCC3)CC2)cc1	-10	-3	-1	u	-5	2.4	-1
CN1CCN(S(=O)(=O)c2cccc(C(=O)N3CCN(c4ccccc4)CC3)c2)CC1	15	7	-24	3714	x	1.2	1
Cc1cc(Cl)ccc1NC(=O)COC(=O)c1c(C)noc1C	0	3	-12	9042	x	3.4	0
COc1ccc(Oc2c(C=O)c3ccccc3n2C)cc1	17	18	2	3171	5	-3.6	6
CCN1CCN(C(=O)CCc2nnc(CCc3ccc(OC)cc3)o2)[C@@H](C)C1=O	13	-5	-16	6043	-4	3.7	7
Cc1nc(-n2nnc3cc(C)c(C)cc32)c2c3c(sc2n1)CCCC3	-1	-1	-8	10301	-3	2.2	-5
CSc1ncc(/C=C2/C(=O)NC(=O)N(C)C2=O)cn1	x	x	-6	2069	0	0.5	0
Cc1ccccc1OCCNc1cc(N2CCN(CCO)CC2)ccc1[N+](=O)[O-]	18	5	-41	2589	9	-5.2	-6
Cc1ccc(OCC(=O)Nc2nnc(C3CCCO3)s2)c(Br)c1 (centres undefined)	-3	7	-22	3791	0	8.9	-8
N#CC1=C2SCN(c3ccccc3)CN2C(=O)CC1c1c(Cl)cccc1Cl (centres undefined)	5	8	-17	6006	-1	-11	8
COc1ccc(/C=C/C(=O)NC(=S)NN2CCCCC2c2cccnc2)cc1OC (centres undefined)	-6	2	18	2523	-7	3.5	-1
COc1ccc(NC(=O)O/N=C/c2ccccc2)cc1	x	x	-53	4042	1	x	x
NC(=O)OCC(COC(N)=O)c1ccccc1	8&0	1&6	-10&34	5438&5872	-8&9	6.7&8.1	3&0
CC(C)c1nnc(SCc2ccc(CSc3nnc(C(C)C)n3N)cc2)n1N	x	x	-3	4475	1	2.5	9
CC1CCCCC1NC(=O)C1Cc2ccccc2CN1S(C)(=O)=O (centres undefined)	x	x	-9	2228	8	4.8	8
O=C(c1ccncc1)N(Cc1cc2ccccc2[nH]c1=O)C1CCCCC1	4	3	-12	20954*	21	-2.6	2
CC(OC(=O)c1snc(C(=O)NC2CCCCC2)c1N)C(=O)NC1CCCCC1 (centres undefined)	-6	-5	-8	3210	-15	-2.2	3
COC(=O)N1c2ccccc2CCc2ccccc21	13	14	-39	3564	-2	3.0	8
CC(C)Nc1nnc(SCC(=O)Nc2ccc(F)cc2)s1	12	2	-13	11333	6	5.1	5
CCCC(C)C(=O)NC1CCSC1=O (centres undefined)	-6	-9	-17	16556*	3	-0.1	-1
